Source: PubChem (ICCB-Longwood Screening Facility, Harvard Medical School)
AID504770: growth inhibitors of E. coli YBA685 in a screen for V. cholerae RctB (chromosome II replication) inhibitors; E. coli YBA685 rctB-dependent plasmid, OD600 growth, 3 h; hits give low values; z-score (test concentration not listed); 130,000 compounds, 0.27% hits;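 active = z-score under -2 on both plates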;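 also: wells of about 30 µL received 100 nL stock; score is relative to mean and SD of the test wells; the first replicate is given; strong numbers were not always called active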
CapD inh: CapD enzyme inhibition | purified CapD enzyme, fluorescence intensity read-out; hits give low values; some hits fall short of the stated cut | 140,000 compounds, 0.23% hits | z-score (concentration not given with the values);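 active = z-score under -4 in either of two replicates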;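 also: stock transfer was 100 nL into about 40 µL; score is relative to mean and spread of the plate; one replicate is shown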
* = called active by the depositor; nt = not tested or not shown; & = joins results of further samples.

Order of values – AID504770	CapD inh
> CCc1ccc(C(=O)COC(=O)c2cnc(C)cn2)cc1
    0.4	nt
> CC1CN(C(=O)C(C)NS(=O)(=O)c2cccc(Cl)c2)CC(C)O1 (stereo unspecified)
    -0.3	0.63
> C=CCN1C(=O)/C(=c2\sc3nc(-c4cc(OC)c(OC)c(OC)c4)nn3c2=O)c2ccccc21
    0.1	0.53
> CCNCC(=O)Nc1ccc(NC(C)=O)cc1
    0.15	nt
> Cc1cccc(NC(=O)c2cccc3c2C(=O)N(CC2CCCO2)C3)c1C (stereo unspecified)
    1.1	-0.91
> O=C1CSc2cc(S(=O)(=O)N3CC=C(c4ccccc4)CC3)ccc2N1
    -0.35	-0.6
> CC1CCN(CC(=O)O)CC1
    0.25	nt
> CC(=O)NC(C)c1nc2ccccc2n1CC(=O)Nc1ccc(C(C)C)cc1 (stereo unspecified)
    0.1	-0.24
> COc1ccc2c(c1)oc(=O)c1ccccc12
    0.35	27
> CCCNC1=CC(=O)C(NCCC)=CC1=O
    0	nt
> O=C(c1ccccc1)N1CCN(C(=O)c2ccccc2)C2C1N(C(=O)c1ccccc1)CCN2C(=O)c1ccccc1 (stereo unspecified)
    nt	-0.15
> Nc1c(C(=O)c2ccc(Cl)cc2)sc2nsc(SCCN3CCCCC3)c12
    -0.2	0.37
> CC1(C)S[C@@H]2[C@H](NC(=O)[C@H](NC(=O)N3CCNC3=O)c3ccccc3)C(=O)N2C1C(=O)O (stereo partly specified)
    0.05	0.64&0.085
> CC(NC(=O)Cc1c[nH]c2ccccc12)C(=O)O (stereo unspecified)
    0.65	0.42
> N#CCCN(Cc1cccs1)S(=O)(=O)c1ccc(-c2ccccn2)s1
    -0.4	-0.64
> O=C(COC(=O)C1CCN(c2ccc(C(F)(F)F)cn2)CC1)Nc1ccc(C(F)(F)F)cc1
    0.35	nt
> C=CCCN1C(=O)CN=C(c2ccccc2)c2ccccc21
    0.05	-0.015
> CCN(CCNS(=O)(=O)c1c(F)cccc1F)c1cccc(C)c1
    nt	-1.4
> Cc1ccc(S(=O)(=O)Nc2nc3ccccc3nc2NCc2ccco2)cc1C
    0.05	nt
> CC(CNS(=O)(=O)c1ccc(-c2ccc(=O)[nH]n2)o1)c1ccccc1 (stereo unspecified)
    -0.55	5.5
> S=C1NCN(Cc2ccccc2)CN1c1ccccc1
    0.25	0.33
> O=C1COc2cc(S(=O)(=O)CCC(=O)N3CCc4ccccc43)ccc2N1
    -0.9	-0.71
> COc1cc(Cl)c(C)cc1NC(=O)C1CSC2(C)CCC(=O)N12 (stereo unspecified)
    0.65	nt
> NC(=O)CSc1ccc(F)cc1
    0.75	0.4
> Cc1cc(C)n(C2=NCCN2S(=O)(=O)c2cc(C(F)(F)F)cc(C(F)(F)F)c2)n1
    -0.6	0.095
> O=C1NCCCC1C(=O)N1CCc2ccccc21 (stereo unspecified)
    0.4	nt
> CS(=O)(=O)NCC(c1cccs1)N1CCc2ccccc21 (stereo unspecified)
    -1.4	nt
> COc1ccc(-c2nc(-c3ccc(-c4ccccc4)cc3)c(-c3ccc(-c4ccccc4)cc3)[nH]2)cc1OC
    nt	79
> N#C/C(=N\OC(=O)c1ccc(Cl)cc1)S(=O)(=O)c1cccs1
    nt	-0.095
> Cc1ccc(Cn2c(=N)n(CC(=O)c3ccco3)c3ccccc32)cc1
    0.9	-0.12

Next section; it opens with the 4 that closed the last part.
Order of values – AID504770	CapD inh
> CS(=O)(=O)NCC(c1cccs1)N1CCc2ccccc21 (stereo unspecified)
    -1.4	nt
> COc1ccc(-c2nc(-c3ccc(-c4ccccc4)cc3)c(-c3ccc(-c4ccccc4)cc3)[nH]2)cc1OC
    nt	79
> N#C/C(=N\OC(=O)c1ccc(Cl)cc1)S(=O)(=O)c1cccs1
    nt	-0.095
> Cc1ccc(Cn2c(=N)n(CC(=O)c3ccco3)c3ccccc32)cc1
    0.9	-0.12
> CC1(C)CC(=O)C(C(C2=C(O)CC(C)(C)CC2=O)c2cccc(O)c2)C(=O)C1 (stereo unspecified)
    nt	-0.12
> COC(=O)c1ccccc1NC(=O)c1ccc2c(c1)OCCO2
    nt	0.71
> COc1cccc(N2C(=O)/C(=C/c3ccc(-c4ccc(Br)cc4)o3)C=C2c2ccccc2)c1
    nt	1.5
> COc1ccc(Cl)cc1NC(=O)c1cc(S(=O)(=O)N2CCN(c3ccccc3F)CC2)ccc1F
    nt	0.84
> O=[N+]([O-])c1c(Nc2ccc(Br)cc2)cc(N2CCOCC2)c2nonc12
    nt	-0.47
> C[N+](C)(CCN1C(=O)C2C(c3ccccc3)C=CC(c3ccccc3)C2C1=O)CC(=O)O (stereo unspecified)
    nt	-0.34
> CC(=O)N1C(C(=O)O)Cc2c([nH]c3ccccc23)C1(C)C (stereo unspecified)
    0	0.11
> O=C(Nc1nc2ccccc2[nH]1)c1cccc(S(=O)(=O)N2CCCC2)c1
    -0.8	nt
> OCc1nc2ccccc2n1C/C=C/c1ccccc1
    -0.5	0.51
> Cc1nc(-c2ccccc2)sc1C(=O)Nc1ccccc1
    -0.85	-0.82
> C[N+](C)(C)CCCCCCCCCC[N+](C)(C)C
    nt	2.3
> CCN(CC)c1ccc(/C=c2\sc3nc(-c4ccco4)nn3c2=O)cc1
    1	-0.95
> O=C(Cn1c(=O)n(CC(=O)NC2CCCC2)c(=O)c2ccccc21)Nc1cccc(F)c1
    0.4	0.81
> CCOC(=O)Cn1c(=O)oc2cc(S(=O)(=O)N(CC)CC)ccc21
    0.15	-0.71
> Cc1cc(C)nc(NS(=O)(=O)c2ccc(NC(=O)c3cccc(NC(=O)C(F)(F)F)c3)cc2)n1
    nt	-0.04
> CC(=O)C1Cn2c(nc3c(c2=O)C2(CCCCC2)Cc2ccccc2-3)S1 (stereo unspecified)
    nt	0.61
> COc1nsnc1N1CCOCC1
    0.3	-0.17
> CCn1c(CCCNC(=O)c2ccc(Cl)cc2)nc2ccccc21
    0.45	-0.44
> CCCN(CC(=O)Nc1ccc(F)c(F)c1F)C(=O)/C=C/c1nc2ccccc2o1
    -0.15	nt
> CCN(CC)C(=O)c1sc(NC(=O)c2cc(-c3ccccc3)nc3ccccc23)c(C(=O)OC)c1C
    nt	-0.49
> CCOC(=O)N1CCC(NC(=O)c2cc(Cl)sc2Cl)CC1
    -0.2	0.21
> COC(=O)Cc1nnc2c3nnc(CC(=O)OC)n3c3ccccc3n12
    nt	0.13
> CCn1cnc2sc(C(=O)N3CCC(C(N)=O)CC3)c(C)c2c1=O
    nt	1.3
> COc1ccccc1Cn1c(=S)[nH]c2cc(C(=O)N3CCC4(CC3)OCCO4)ccc2c1=O
    -0.4	-0.55
> Cc1csc(C2C(N)=NC(S)=C(C#N)C23CCCCC3)n1 (stereo unspecified)
    -0.15	nt
> CCc1nc(SCC(=O)Nc2nncs2)n[nH]1
    nt	0
> O=C(/C=C/c1ccco1)NC(=S)N1CCNC(=O)C1CC(=O)OCC1CCCO1 (stereo unspecified)
    -0.15	nt
> O=C1CN(C(=O)CSCc2c(F)cccc2Cl)c2ccccc2N1
    -1	nt
> CCOC(=O)c1c(NC(=O)c2ccc(Cl)c([N+](=O)[O-])c2)sc(C(=O)Nc2ccccc2F)c1C
    nt	0.24
> COc1ccc(/C(C#N)=C/c2cc(Br)cs2)cc1
    nt	1.6

Copied from the list.
AID504770 result of CCCN(CC(=O)Nc1ccc(F)c(F)c1F)C(=O)/C=C/c1nc2ccccc2o1 → -0.15
AID504770 result of CCn1c(CCCNC(=O)c2ccc(Cl)cc2)nc2ccccc21 → 0.45

(continued)
Order of values – AID504770	CapD inh
> N#Cc1cc2c(=O)n3ccccc3nc2n(Cc2cccnc2)c1=O
    1.2	55
> CCNC(=S)N1CC=C(c2ccccc2)CC1
    -0.35	0.31
> Cc1ccc(C(=O)CCC(=O)O)s1
    -3.3*	nt
> Cc1cc(=O)oc(C)c1C(=O)NCCN(C)Cc1ccccc1
    -0.3	0.25
> O=C1c2ccccc2-c2nnc(-c3ccc(Cl)cc3)cc21
    -0.4	0.12
> COc1cc(CNc2ccc3[nH]c(=O)[nH]c3c2)ccc1OCC(N)=O
    1.6	26
> Cc1cccc(OCc2ccc(Sc3ccc(Cl)cc3)c([N+](=O)[O-])c2)c1C
    nt	0.12
> CSc1sc(C#N)c2c1C(O)CCC2 (stereo unspecified)
    nt	-0.45
> Cc1cc2ccccc2n1-c1ccc(C(=O)NC2CCCC2)s1
    0.2	-0.22
> Cc1ccc(O)c(C2=Nc3ccccc3N=C(c3cccc(Br)c3)C2)c1
    nt	0.18
> COc1ccc(S(=O)(=O)N(C(=O)Oc2ccccc2)c2ccc3oc(=O)sc3c2)cc1OC
    -0.2	-1.6
> CCOC(=O)C(C)Oc1ccc2c(-c3ccccc3)cc(=O)oc2c1 (stereo unspecified)
    -1.1	2.8
> O=C(O)/C(=C\c1cccc(C(F)(F)F)c1)Sc1nnc(-c2ccco2)o1
    -0.4	nt
> c1ccc(SCc2cn3cccnc3n2)nc1
    0.45	80
> CC(C)C(=O)O/N=C(\N)c1ccccc1
    1.5	0.02
> Cc1ccc(NC2=NCC(=O)N2C2CCCC2)cc1C
    0.95	nt
> CCCCC1(CC)C(=O)NC(=O)NC1=Nc1ccc(OC)cc1 (stereo unspecified)
    1.6	-0.64
> CS(=O)(=O)c1ccc(S(C)(=O)=O)s1
    -1.3	-0.22
> O=c1c(Cl)c(N2CCN(CCO)CC2)cnn1-c1ccccc1
    -0.5	nt
> CCc1cc2c(=O)c(-c3ccccn3)coc2cc1O
    -1.2	-0.51
> COCCNC(=O)c1ccc(OCc2cccc(Cl)n2)cc1
    nt	-0.41
> COc1ccc(-c2noc(N3CCC(C(=O)O)CC3)n2)cc1OC
    0.05	-0.18
> CCOC(=O)C1CCCN(C(=O)c2cc(Nc3ccc(OC)cc3)nc3ccccc23)C1 (stereo unspecified)
    0.55	-0.29
> N#C/C(=C\Nc1cnccn1)S(=O)(=O)c1ccc(C(F)(F)F)cn1
    1.7	-0.51
> CCOCC(=O)N1CCN(c2cccc(C)c2C)CC1
    -0.25	0.32
> O=C1CSC(c2cc3c(cc2Br)OCO3)N1c1ccc(Cl)cc1 (stereo unspecified)
    nt	0.1
> CSc1sc2c(O)cc(=O)[nH]c2c1C#N
    -0.7	nt
> Fc1c(CSC(=S)N2CCOCC2)cccc1CSC(=S)N1CCOCC1
    0.9	0.7
> CC1CCC2C(C1)c1sc(=O)[nH]c1SC2(C)C (stereo unspecified)
    0.05	nt
> O=C(O)Cc1cc(=O)oc2cc(O)ccc12
    0.45	63
> COC(=O)c1sc(=S)n(-c2cccc(OC)c2)c1N
    -0.8	-1.6
> COc1ccc(Nc2nc(Cl)nc(NC(C)C)n2)c(OC)c1
    nt	-0.2
> COCC(C)n1c(COc2ccccc2F)nnc1SCc1nnc(-c2ccccc2)o1 (stereo unspecified)
    0.2	nt
> Cc1c(C(=O)NCCC2=CCCCC2)sc2ncnc(N3CCCCC3C)c12 (stereo unspecified)
    -0.15	-0.23
> CSc1ncc(C(=O)Nc2ccc3c(c2)OCCO3)n1-c1ccccc1
    -0.2	nt
> CCOC(=O)C1=NN(c2ccccc2)C2C(=O)N(c3ccccc3Cl)C(=O)C12 (stereo unspecified)
    nt	2.2
> Cc1ccc(S(=O)(=O)N(CC(N)=O)CC(O)Cn2c3ccccc3c3ccccc32)cc1 (stereo unspecified)
    1.1	1.6
> NC(C(=O)O)C(O)(c1ccccc1)C(F)(F)C(F)(F)F (stereo unspecified)
    -0.25	-0.24
> CCN(CC)S(=O)(=O)c1ccc(NC(=O)COc2ncnc3sc(C)c(C)c23)cc1
    1.6	nt
> Cc1cccc(C(=O)NNC(=O)c2cc3cc4ccccc4nc3s2)c1
    nt	4.2
> C/C=C(/C)C(=O)OC1CC(O)(C(C)C)C2C(OC(=O)c3ccc(O)cc3)CC(C)=CCC12C (stereo unspecified)
    -0.1	-0.1
> Cc1ccc(-c2nc3ccccc3nc2NN)cc1
    -1.4	1.7
> CCOC(=O)c1nccn1CC(=O)Nc1cccc(Cl)c1C
    -0.6	-0.27
> CC(C)c1ccc(NC(=S)NCCO)cc1
    0.1	-0.41
> CC(C)CNC(=O)C1=CC(c2cccs2)=NS(=O)(=O)N1C
    -0.9	3.4
> CC(=O)Nc1cccc(Oc2cnc3ccccc3n2)c1
    1	-0.4
> COc1cccc(C2=NS(=O)(=O)N(C)C(C(=O)NC(C)(C)CO)=C2)c1
    1.6	-2
> CCOC(=O)C1CCCCN1S(=O)(=O)c1ccc2c(c1)C(=C(C)C)C(=O)N2 (stereo unspecified)
    0.4	1
> COc1cc(Cl)c(NS(=O)(=O)c2cc(C(F)(F)F)cc(C(F)(F)F)c2)c(OC)c1
    nt	-0.42
> O=C(/C=C/c1ccc2c(c1)OCCO2)NC1CCCCC1
    -1.1	nt
> CCOc1ccc(CCNC(=O)CN2C(=O)CSc3ccccc32)cc1OCC
    -0.3	-0.68
> O=C(CCl)NCC1(c2ccccc2)CCCC1
    nt	-0.055
> CCN1CCN(CCCNC(=O)c2ccc3c(Cl)c4c(nc3c2)CCCC4)CC1
    -0.7	-0.8

Copied from the entries so far (three entries):
Order of values – AID504770	CapD inh
> COC(=O)c1sc(=S)n(-c2cccc(OC)c2)c1N
    -0.8	-1.6
> COc1ccc(Nc2nc(Cl)nc(NC(C)C)n2)c(OC)c1
    nt	-0.2
> COCC(C)n1c(COc2ccccc2F)nnc1SCc1nnc(-c2ccccc2)o1 (stereo unspecified)
    0.2	nt
